VDR inhibitor = Inhibitors of the vitamin D receptor (VDR): qHTS | Vitamin D3 receptor (Homo sapiens), P11473 | VDR-SRC2-3 peptide fluorescence polarization, 2 h | Potency, µM, for inactives: max response, negative = inhibition, usual class: inhibitors | actives 0.93% (n = 400,000) | AID 504847, 2011; active = well fitted inhibition curve with a large enough effect; inconclusive = small, poorly fitted or top-dose-only effect, or another doubt; inactive = no such curve, though single readings can be large or run the other way; also: series mostly up to about 120 µM
Target sequence (P11473 whole entry, looked up): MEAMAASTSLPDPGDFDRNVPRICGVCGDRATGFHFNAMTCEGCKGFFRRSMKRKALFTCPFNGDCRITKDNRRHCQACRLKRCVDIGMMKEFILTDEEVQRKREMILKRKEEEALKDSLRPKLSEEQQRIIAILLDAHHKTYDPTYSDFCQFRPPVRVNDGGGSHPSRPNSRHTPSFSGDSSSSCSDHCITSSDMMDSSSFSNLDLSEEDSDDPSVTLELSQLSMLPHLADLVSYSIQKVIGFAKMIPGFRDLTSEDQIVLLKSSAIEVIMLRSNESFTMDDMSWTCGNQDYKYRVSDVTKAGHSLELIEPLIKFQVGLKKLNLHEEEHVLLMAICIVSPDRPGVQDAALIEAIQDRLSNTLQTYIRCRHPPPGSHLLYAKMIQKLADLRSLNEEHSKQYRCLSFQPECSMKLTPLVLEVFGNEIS
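Compounds are added to VDR with labelled SRC2-3 coactivator peptide and held 2 h at room temperature. Inhibition of the VDR–peptide interaction is then read as a change in fluorescence polarization.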
* marks the source's active call; other numbers are inactive results; u = inconclusive. % is scaled to controls: 0 for no effect and ±100 for the full control effect; potency is read from the fitted curve at half-maximal effect. Only part of the results is shown (hit frequency here may not be typical).

SMILES	VDR inhibitor
CCCN(CCC)C(=O)CSc1nc2n[nH]c(C)c2c(=N)n1-c1ccc(OC)cc1	10%
CCOc1ccc2[nH]c3c(=O)n(CCC4=CCCCC4)cnc3c2c1	-1%
COC(=O)[C@]1(Cc2ccccc2)N[C@H](CN(C)S(=O)(=O)c2ccc(OC(F)(F)F)cc2)[C@@H]2C(=O)N(C)C(=O)[C@@H]21	-1%
O=C(Nc1ccc(C(F)(F)F)cc1)c1cc(S(=O)(=O)NCC2COc3ccccc3O2)ccc1F (stereo unspecified)	5%
COc1ccc(F)cc1S(=O)(=O)Nc1cc2c3c(c1)CCN3C(=O)CC2	2%
COCCSc1ccccc1C(=O)N1CCc2ccccc21	-28%
Cc1ccc(CC(=O)O/N=C(\N)c2ccncc2)cc1	24%
O=C1C(=O)N(CNc2cccnc2)c2ccccc21	-14%
CC1=C(C(=O)N2CCCC(CCC(=O)NCc3ccc(F)c(F)c3)C2)OCCO1 (stereo unspecified)	-9%
COc1cc(C2c3c(-c4ccccc4)n[nH]c3C(=O)N2c2ccc(C(=O)O)cc2)ccc1O (stereo unspecified)	-10%
O=C1c2ccccc2C(=O)c2c1cccc2N1CCN(CCO)CC1	24%
CCCCOc1ccc(CNC(=S)N/N=C/c2ccc(OC)c(OC)c2)cc1	16%
CCc1cc(C(=O)OC)c(NC(=O)CC2NCCNC2=O)s1 (stereo unspecified)	7%
CCOc1ccc(-n2c(SC)nc3c(c2=O)SCC3)cc1	-6%
CC(C)OC(=O)CC(=O)c1sc2nc3c(cc2c1N)CN(C)CC3	-18%
CCSc1nnc(NC(=O)CSc2nnc(Cc3cccn3C)n2CCc2ccccc2)s1	-13%
CCOc1ccc(S(=O)(=O)NCCC(=O)NCc2cccnc2)cc1	-2%
CCOC(=O)c1sc(NC(=O)CSc2ncccn2)c(C#N)c1C	3%
O=C(NCCCSc1ccccc1)c1cnc(Cl)c(Cl)c1	-5%
O=C1CC(C(=O)N2CCCc3ccccc32)CN1c1ccc(F)cc1 (stereo unspecified)	5%
N#CCCN(C1CCCCC1)S(=O)(=O)CCOc1ccccc1	15%
COc1ccc(NC(=O)C2CCCN(S(=O)(=O)c3cccc4cccnc34)C2)cc1OC (stereo unspecified)	21%
CC(=O)Nc1ccc(C(=O)N/N=C/c2cc(Br)cc(Br)c2O)cc1	3%
COc1ccc(N(C(=O)COc2ccccc2)C2C=CS(=O)(=O)C2)c(OC)c1 (stereo unspecified)	2%
CCOc1ccc(C(=O)Nc2ccccc2OCc2cc(=O)n3ccccc3n2)cc1	21%

A different layout for some results above:
compound | VDR inhibitor
CCCN(CCC)C(=O)CSc1nc2n[nH]c(C)c2c(=N)n1-c1ccc(OC)cc1 | 10%
CCOc1ccc2[nH]c3c(=O)n(CCC4=CCCCC4)cnc3c2c1 | -1%

Other results
SMILES	VDR inhibitor
CCOCCCNC(=O)CCCC1=NS(=O)(=O)c2ccccc2N1	-15%
C=C(C)C(=O)Oc1ccc(N=Nc2ccc(C)cc2)ccc1=O	u
C(=C\c1ccccn1)/c1ccccn1	u
CCCOc1ccc(/C=C2/C(=O)ON=C2C)cc1Cl	18µM*
COc1cc(S(=O)(=O)NCc2ccc3c(c2)OCO3)ccc1F	-8%
CC(=O)c1ccc(Oc2cnccn2)cc1	-18%
O=C(O)[C@H]1CCCC[C@H]1C(=O)NCCc1ccccc1	-13%
Cn1c(SCc2cc([N+](=O)[O-])cc3c2OCOC3)nnc1-c1ccccn1	-16%
CC(CC(=O)Nc1ccccc1)n1ccnc1 (stereo unspecified)	-21%
Cc1ccccc1Oc1ncnc(N)c1[N+](=O)[O-]	-6%
CCCN(C(=O)c1cc2c(s1)CCC2)c1c(N)n(Cc2ccccc2)c(=O)[nH]c1=O	10%
CC1CCCCN1CCCNC(=O)c1ccc(Br)cc1 (stereo unspecified)	-10%
O=C(CN1CCN(c2ccc(F)cc2)CC1)NC(=O)NCc1ccco1	-1%
CCOc1cc(CNCCc2ccc(S(N)(=O)=O)cc2)ccc1OCc1ccc(Cl)cc1	-15%
COc1ccc(C2(C)NC(=O)N(CC(=O)NC(C)c3ccc(CC(C)C)cc3)C2=O)cc1 (stereo unspecified)	-27%
Cc1nc(NC(=O)CCc2ccccc2)sc1C	89µM*
CCCCOc1ccc(C(=O)Nc2ccc(C)cc2[N+](=O)[O-])cc1	-5%
COc1ccc(C(=O)N2CCn3c2nc2ccccc23)cc1	18%
CC(C)c1nc2cc3ccccc3cc2[nH]1	-14%
CCOc1ccc(C2c3cc(OC)c(OC)cc3CC(=O)N2c2ccc(OC)cc2)cc1 (stereo unspecified)	14%
Cc1ccccc1OCC(=O)Nc1cccc(C(=O)OCc2cc(=O)n3c(C)csc3n2)c1	-6%
O=C(Nc1c2c(nn1-c1ccccc1)CS(=O)C2)c1ccc(Br)o1 (stereo unspecified)	13%
CCCCn1c(N)c(N(CCOC)C(=O)c2ccc(S(=O)(=O)N3CCCCC3)cc2)c(=O)[nH]c1=O	u
COc1ccc(C(=O)c2c(-c3ccsc3)oc3ccc(-c4ccc(OC)cc4)cc23)cc1	-14%
Cc1ccc(NC(=S)Nc2ccc3cn[nH]c3c2)cc1C	9%
(more compounds)
SMILES	VDR inhibitor
O=C(CN(CCc1ccccc1)S(=O)(=O)c1ccc(Br)cc1)N/N=C/c1ccc2c(c1)OCO2	-12%
CCc1cccc(C)c1NC(=S)N(CCOC)C(C)c1ccco1 (stereo unspecified)	-7%
CCOc1ccccc1NC(=O)Cn1ccn(Cc2ccc(C)cc2)c(=O)c1=O	11%
CCOC(CCNC(=O)c1cn(CC(C)C)c(=O)c2c1c1ccccc1n2C)OCC	-8%
FC(F)(F)c1ccccc1-c1cc(NCc2cccnc2)ncn1	u
O=C(c1ccc(Cn2c(=O)[nH]c3ccsc3c2=O)cc1)N1CCN(c2ccccc2)CC1	-19%
C=CCn1c(SCC(=O)Nc2ccc3c(c2)CCC3)nc2ccccc2c1=O	-2%
O=[N+]([O-])c1cccc2c3c([nH]c12)CCCC3	5%
C=CCN(C(=O)CNC(=O)c1ccco1)C(C(=O)NC1CCCCC1)c1ccc(OC)cc1OC (stereo unspecified)	13%
COC(=O)CSc1nc2ccccc2n1CC(=O)N(C(C)C)C(C)C	5%
Cc1ccc(NC(=O)CSc2ccc3nnc(CCNS(=O)(=O)c4ccccc4)n3n2)cc1Cl	18%
N#CC(C(=O)Nc1ccccc1)=C1Nc2ccccc2N1	1%
CCCCn1c(N)c(N(CC(C)C)C(=O)c2cnc(C)cn2)c(=O)[nH]c1=O	-4%
COc1cc(/C=C2\SC(=S)N(CCC(=O)N3CCN(C)CC3)C2=O)cc(OC)c1OC	-2%
COc1ccc(-c2ccccc2)cc1NC(=O)c1cccs1	13%
CC(=O)c1ccc(NC(=O)CSc2nc(C)cc(C)c2C(N)=O)cc1	13%
Nc1ccc(N(c2ccccc2)c2ccc(N)cc2)cc1	0%
O=C(NC(=O)c1ccncc1)NC(c1ccccc1)c1ccccc1	9%
C[C@H](NC(=O)C1(c2ccccc2)CCN(C(=O)[C@H]2CSCN2C(=O)OC(C)(C)C)CC1)C(=O)O	11%
CCOC(=O)c1c(NC(C)=O)sc2c1CCCNC2=O	7%
O=C(CCc1ccccc1)Nc1ccc(S(=O)(=O)N2CCCC2)cc1	-12%
O=S(=O)(CC(CN1CCCC1)N1CCCC1)c1ccc2ccccc2c1 (stereo unspecified)	-20%
COc1ccc(-c2cc(C(=O)Nc3ccc(Br)cc3)no2)cc1	-11%
O=C(NCC1CC1)c1onc(CSc2ccc(F)cc2)c1C(=O)NCC1CC1	12%
CCN(CC)c1ccc(S(=O)(=O)N2CCOCC2)cc1NC(=O)CSc1nncs1	-18%
Further entries follow.
SMILES	VDR inhibitor
COc1ccc(-c2ccccc2NC(=O)C2CCCN(Cc3ccc(C)o3)C2)cc1 (stereo unspecified)	6%
COc1ccc(S(=O)(=O)N(C)CC(=O)N2CCN(c3ccccc3)CC2)cc1	21%
CCc1nnc(SC(CC)C(=O)Nc2ccc(OC)c(Cl)c2)c2cc3occc3n12 (stereo unspecified)	9%
COc1ccc(-c2cc(-c3ccc(Cl)cc3)n[nH]2)c(O)c1	6%
CCOC(=O)Cc1csc(NC(=O)CCCCCN2C(=O)c3cccc4cccc(c34)C2=O)n1	10%
COCC1COS(=O)(=O)NC1(C)C (stereo unspecified)	-1%
COc1cc(C)c(Cl)cc1S(=O)(=O)NCc1ccccn1	-2%
COc1ccc2[nH]cc(CCNc3cc(-c4ccccc4Cl)ncn3)c2c1	u
O=C(CSCc1ccccc1)Nc1ccc(Cl)cn1	-15%
CCCc1cc(=O)[nH]c2nnc(SCC(=O)NC3CCCC3)n12	-6%
COc1ccc2c(c1)c1c(c(=O)n(Cc3ccccc3)c(=O)n1CC(=O)NCc1ccccc1)n2C	6%
COc1ccc(OC)c(NC(=O)Nc2cccc(OCc3cc(=O)n4cc(C)ccc4n3)c2)c1	-2%
COc1ccc(NC(=O)C2CCN(C(=O)[C@@H]3Cc4ccccc4CN3)CC2)cc1	-11%
O=C(NCCn1cc(SCc2ccc(C(F)(F)F)cc2)c2ccccc21)c1cccs1	5%
Cc1cccc(NC(=O)Cn2c(=O)n(CCCS(=O)(=O)C3CCCCC3)c(=O)c3ccccc32)c1	-11%
CC(C)(C)n1nnnc1C(c1ccccc1F)N(Cc1ccco1)CC1CCCO1 (stereo unspecified)	-10%
Cc1ccc2nc(COc3ccccc3NC(=O)COc3ccc(F)cc3)cc(=O)n2c1	24%
O=C(c1ccccc1)c1coc2ccc(O)c(Cl)c12	12%
COc1cc(OC)c(N(C)C(=O)c2cc3c(s2)-c2ccccc2OC3)cc1Cl	-11%
CCOc1cccc(OCCn2cnc3ccccc3c2=O)c1	4%
CC1=C(c2ccc(C)c(C)c2)S(=O)(=O)N(Cc2ccc(C(=O)NCc3ccccc3F)cc2)C1=O	0%
CCC(=O)N1CCc2cc(Br)cc(S(=O)(=O)CCC(=O)NCCc3ccc(Cl)cc3)c21	8%
CC(C)c1ccc(S(=O)(=O)NCc2nc3cccnc3n2Cc2ccc(F)cc2)cc1	1%
CC(CC(=O)N1CCN(c2ccccc2F)CC1)c1ccccc1 (stereo unspecified)	-14%
COc1ccccc1CCNC(=O)C(C)n1nc(C)c2c(C)n(-c3ccccc3)nc2c1=O (stereo unspecified)	-13%
COc1ccc(CNC(=O)Nc2ccccc2)cc1	u
Cc1ccc(C2SCC(=O)N2c2ccccc2)cc1 (stereo unspecified)	u

Among those listed so far, these have an aryl thioether with sulfur outside any ring:
SMILES	VDR inhibitor
CCCN(CCC)C(=O)CSc1nc2n[nH]c(C)c2c(=N)n1-c1ccc(OC)cc1	10%
COCCSc1ccccc1C(=O)N1CCc2ccccc21	-28%
CCOc1ccc(-n2c(SC)nc3c(c2=O)SCC3)cc1	-6%
CCSc1nnc(NC(=O)CSc2nnc(Cc3cccn3C)n2CCc2ccccc2)s1	-13%
CCOC(=O)c1sc(NC(=O)CSc2ncccn2)c(C#N)c1C	3%
O=C(NCCCSc1ccccc1)c1cnc(Cl)c(Cl)c1	-5%
Cn1c(SCc2cc([N+](=O)[O-])cc3c2OCOC3)nnc1-c1ccccn1	-16%
C=CCn1c(SCC(=O)Nc2ccc3c(c2)CCC3)nc2ccccc2c1=O	-2%
COC(=O)CSc1nc2ccccc2n1CC(=O)N(C(C)C)C(C)C	5%
Cc1ccc(NC(=O)CSc2ccc3nnc(CCNS(=O)(=O)c4ccccc4)n3n2)cc1Cl	18%
CC(=O)c1ccc(NC(=O)CSc2nc(C)cc(C)c2C(N)=O)cc1	13%
O=C(NCC1CC1)c1onc(CSc2ccc(F)cc2)c1C(=O)NCC1CC1	12%
CCN(CC)c1ccc(S(=O)(=O)N2CCOCC2)cc1NC(=O)CSc1nncs1	-18%
CCc1nnc(SC(CC)C(=O)Nc2ccc(OC)c(Cl)c2)c2cc3occc3n12 (stereo unspecified)	9%
CCCc1cc(=O)[nH]c2nnc(SCC(=O)NC3CCCC3)n12	-6%
O=C(NCCn1cc(SCc2ccc(C(F)(F)F)cc2)c2ccccc21)c1cccs1	5%

Screens (PubChem)
